# Yeast UUG start – yeast start codon fidelity modulation; actives 0.13% (n = 350,000); activity score, % at 18.7 µM; S. cerevisiae UUG-firefly luciferase reporter, luminescence/redox ratio;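 active = replicate mean at a twofold rise or more, about +100% in these data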;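 also: firefly luciferase made from a UUG start codon reports start codon fidelity; reporter light over untreated wells divided by growth signal over untreated wells; some hits fall short of that in this replicate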
# Env fusion inh – inhibitors of HIV Env-mediated cell fusion. HeLa-JRFL Env/CEM21 cell fusion, luciferase. inhibition, % at 12.3 µM. actives 1.1% (n = 360,000);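 active = mean replicate inhibition score of at least 50 and every replicate individually at or above 50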;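 also: 0% = plate neutral controls and 100% = maraviroc near 300 nM; one replicate is shown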
# The depositor's hits bear a star; [ ] = another dose, or the depositor's remark.
smiles | Yeast UUG start | Env fusion inh
C[C@H](CO)N1C[C@H](C)[C@H](CN(C)Cc2ccccn2)Oc2ncc(C#C[C@@H](C)O)cc2C1=O | -21 | -27[16.7 µM]
O=C(C[C@@H]1CC[C@@H](NC(=O)CN2CCOCC2)[C@@H](CO)O1)NC1CCCCC1 | -4 | -3[16.7 µM]
Cc1ccc(S(=O)(=O)N(C)C[C@@H]2Oc3c(NC(=O)NC4CCCCC4)cccc3C(=O)N([C@H](C)CO)C[C@H]2C)cc1 | 11 | 2[16.7 µM]
O=C(C[C@H]1C[C@@H]2c3cc(NS(=O)(=O)c4ccc(F)cc4)ccc3O[C@@H]2[C@H](CO)O1)NCc1ccccc1 | 0 | 37[16.7 µM]
O=C(C[C@H]1C[C@H]2c3cc(NC(=O)c4cccnc4)ccc3O[C@H]2[C@H](CO)O1)NCc1ccccc1 | -11 | 7[16.7 µM]
COc1ccccc1CN1C(=O)c2ccccc2[C@](Cc2ccccc2I)(C(=O)NCCN2CCOCC2)[C@@H]1c1ccc(CO)cc1 | 31 | 24[16.7 µM]
COCC#Cc1cnc2c(c1)C(=O)N([C@@H](C)CO)C[C@@H](C)[C@H](CN(C)C)O2 | 11 | -20[16.7 µM]
C[C@@H]1CN([C@@H](C)CO)C(=O)c2cc(NC(=O)CCCN(C)C)ccc2O[C@@H](C)CCCCO[C@@H]1CN(C)Cc1ccc(C(F)(F)F)cc1 | 27 | -12[16.7 µM]
O=C(C[C@H]1C[C@H]2c3cc(NC(=O)C4CCOCC4)ccc3O[C@H]2[C@@H](CO)O1)NCc1ccc(Cl)cc1 | -11 | -11[16.7 µM]
C[C@H]1CN([C@@H](C)CO)C(=O)c2cc(C#CCN(C)C)cnc2O[C@@H]1CN(C)C(=O)c1cccc(F)c1 | -5 | 31[16.7 µM]
C[C@H]1CN([C@@H](C)CO)C(=O)c2cccc(NC(=O)c3cnccn3)c2O[C@H]1CN(C)S(=O)(=O)c1ccc(Cl)cc1 | 13 | 4[16.7 µM]
C[C@@H]1CCCCO[C@H](CN(C)Cc2ccc(C(=O)O)cc2)[C@H](C)CN([C@H](C)CO)C(=O)c2cc(NC(=O)c3ccccc3)ccc2O1 | 3 | -27[16.7 µM]
Cc1noc(C)c1NC(=O)N(C)C[C@H]1OCCCC[C@@H](C)Oc2ccc(N(C)C)cc2C(=O)N([C@@H](C)CO)C[C@@H]1C | 3 | -19[16.7 µM]
C[C@H]1CN([C@@H](C)CO)C(=O)Cc2cc(NC(=O)CCN3CCOCC3)ccc2O[C@@H]1CN(C)Cc1ccc(C(F)(F)F)cc1 | 7 | 8[16.7 µM]
COc1ccc(S(=O)(=O)Nc2ccc3c(c2)C(=O)N([C@H](C)CO)C[C@@H](C)[C@H](CN(C)S(=O)(=O)c2ccc(Cl)cc2)O3)cc1 | 1 | -25[16.7 µM]
Cc1noc(C)c1S(=O)(=O)Nc1ccc2c(c1)C(=O)N([C@H](C)CO)C[C@H](C)[C@H](CN(C)C(=O)Nc1cccc3ccccc13)OCCCC[C@H](C)O2 | 13 | -86[16.7 µM]
CCCNC(=O)N(C)C[C@@H]1Oc2ncc(C#C[C@H](C)O)cc2C(=O)N([C@@H](C)CO)C[C@H]1C | -1 | -5[16.7 µM]
O=C(N[C@@H]1CC[C@H](CCn2cc(-c3ccccc3)nn2)O[C@H]1CO)c1cnccn1 | -6 | -71[16.7 µM]
Cc1noc(C)c1S(=O)(=O)Nc1ccc2c(c1)CC(=O)N([C@H](C)CO)C[C@@H](C)[C@H](CN(C)S(=O)(=O)c1ccc(F)cc1)O2 | 9 | 15[16.7 µM]
CC(C)CC#Cc1cnc2c(c1)C(=O)N([C@@H](C)CO)C[C@@H](C)[C@H](CN(C)C(=O)Nc1ccccc1F)O2 | 11 | 20[16.7 µM]
CCCN1C[C@H](C)[C@@H](OC)CN(C)C(=O)c2cc(NC(=O)c3ccc(F)cc3)ccc2OC[C@@H]1C | 9 | -2[16.7 µM]
C[C@@H]1CN([C@H](C)CO)C(=O)c2cc(C#CCC3CCCC3)cnc2O[C@H]1CN(C)S(=O)(=O)c1cccs1 | -4 | 26[16.7 µM]
C[C@@H]1CN([C@H](C)CO)C(=O)c2cccc(NS(=O)(=O)c3cn(C)cn3)c2O[C@H]1CN(C)Cc1ccc(C(F)(F)F)cc1 | -7 | -22[16.7 µM]
C[C@H](CO)N1C[C@H](C)[C@H](CN(C)Cc2ccccn2)Oc2ncc(C3=CCCC3)cc2C1=O | -25 | -4[16.7 µM]
CC(=O)Nc1ccc2c(c1)C(=O)N(C)[C@H]1CC[C@@H](CC(=O)N3CCc4ccccc4C3)O[C@H]1CO2 | 0 | -2[16.7 µM]

# Next section
smiles | Yeast UUG start | Env fusion inh
COc1ccc(NC(=O)N(C)C[C@@H]2Oc3ccc(NC(=O)Nc4c(C)noc4C)cc3CC(=O)N([C@H](C)CO)C[C@H]2C)cc1 | -8 | -16[16.7 µM]
CCNC(=O)C[C@H]1CC[C@@H]2[C@@H](COc3ccc(NC(=O)Nc4cccc(F)c4)cc3C(=O)N2C)O1 | 7 | -21[16.7 µM]
CCCNC(=O)Nc1ccc2c(c1)C(=O)N(C)C[C@H](OC)[C@@H](C)CN(C)[C@@H](C)CO2 | -5 | 19[16.7 µM]
C[C@@H]1CCCCO[C@@H](CN(C)S(=O)(=O)c2ccccc2)[C@H](C)CN([C@H](C)CO)C(=O)c2cc(NC(=O)CCCN(C)C)ccc2O1 | 17 | 1[16.7 µM]
CNC(=O)C[C@@H]1CC[C@H]2[C@@H](COc3ccc(NC(=O)c4cc(C)on4)cc3C(=O)N2C)O1 | -7 | -17[16.7 µM]
CCCN(C)C[C@@H]1OCCCC[C@@H](C)Oc2ccc(NC(=O)CCC(F)(F)F)cc2C(=O)N([C@H](C)CO)C[C@@H]1C | 15 | 10[16.7 µM]
C[C@H](CO)N1C[C@H](C)[C@@H](CN(C)S(C)(=O)=O)Oc2ccc(NC(=O)CCC(F)(F)F)cc2CC1=O | 4 | -13[16.7 µM]
C[C@@H]1CCCCO[C@@H](CN(C)Cc2ccc3c(c2)OCO3)[C@@H](C)CN([C@@H](C)CO)C(=O)c2cc(NS(=O)(=O)c3ccc(F)cc3)ccc2O1 | 21 | -34[16.7 µM]
C[C@@H]1CN([C@H](C)CO)C(=O)CCCn2cc(nn2)CO[C@H]1CN(C)C(=O)Oc1ccccc1 | -3 | -24[16.7 µM]
C[C@@H]1CN([C@@H](C)CO)C(=O)c2cc(NS(=O)(=O)c3ccc(F)cc3)ccc2O[C@H]1CN(C)C(=O)Nc1cccc2ccccc12 | 7 | -50[16.7 µM]
C[C@H]1CN([C@@H](C)CO)C(=O)Cc2cc(NC(=O)C3CC3)ccc2O[C@@H]1CN(C)C(=O)Nc1cccc2ccccc12 | 18 | 11[16.7 µM]
Cc1noc(C)c1NC(=O)Nc1ccc2c(c1)CC(=O)N([C@H](C)CO)C[C@@H](C)[C@H](CN(C)Cc1ccc(Oc3ccccc3)cc1)O2 | -7 | -67[16.7 µM]
Cc1noc(C)c1S(=O)(=O)Nc1cccc2c1O[C@@H](CN(C)Cc1ccc(C(=O)O)cc1)[C@@H](C)CN([C@H](C)CO)C2=O | -3 | 13[16.7 µM]
COc1ccc(-c2ccc([C@H]3[C@H](C#N)N(C(=O)C4CCC4)[C@H]3CO)cc2)cc1 | -8 | -25[16.7 µM]
C[C@H]1CN([C@@H](C)CO)S(=O)(=O)c2ccc(C3=CCCC3)cc2O[C@H]1CN(C)S(=O)(=O)c1cn(C)cn1 | -11 | -46[16.7 µM]
N#C[C@@H]1[C@@H](c2ccc(C3=CCCC3)cc2)[C@@H](CO)N1C(=O)Cc1ccncc1 | 0 | 10[16.7 µM]
[N-]=[N+]=NCc1ccccc1C[C@]1(C(=O)NCC(O)CO)COC(c2ccc(OCCCO)cc2)=N1 (some centres not stated) | 6 | -12[16.7 µM]
C[C@@H]1CN([C@H](C)CO)C(=O)c2cc(-c3ccc(F)cc3)cnc2O[C@H]1CN(C)C(=O)c1ccccn1 | -8 | 4[16.7 µM]
C[C@H]1CN([C@@H](C)CO)C(=O)c2cc(-c3cccnc3)cnc2O[C@H]1CN(C)C(=O)C1CCCCC1 | 6 | 12[16.7 µM]
C[C@H](CO)N1C[C@H](C)[C@H](CN(C)Cc2ccncc2)Oc2ncc(C#CCC3CCCC3)cc2C1=O | 4 | -7[16.7 µM]
Cc1noc(C)c1S(=O)(=O)N(C)C[C@@H]1Oc2ccc(NC(=O)Nc3ccc(C(F)(F)F)cc3)cc2CC(=O)N([C@H](C)CO)C[C@@H]1C | 4 | 60*[16.7 µM]
O=C(C[C@@H]1CC[C@@H](NS(=O)(=O)c2ccc(F)cc2)[C@H](CO)O1)N1CCc2ccccc2C1 | 8 | 18[16.7 µM]
Cc1ccc(S(=O)(=O)NCC[C@@H]2CC[C@@H](NC(=O)c3cnccn3)[C@@H](CO)O2)cc1 | 6 | -262[16.7 µM]
Cc1ccccc1-c1cnc2c(c1)C(=O)N([C@H](C)CO)C[C@H](C)[C@@H](CN(C)Cc1cncnc1)O2 | 3 | 6[16.7 µM]
C[C@H]1CN([C@@H](C)CO)C(=O)c2cccc(NC(=O)Nc3cccc4ccccc34)c2O[C@@H]1CN(C)S(=O)(=O)c1ccc(Cl)cc1 | -10 | 4[16.7 µM]

# Next records.
smiles | Yeast UUG start | Env fusion inh
CO[C@H]1CN(C)C(=O)c2cc(NS(=O)(=O)CC(F)(F)F)ccc2OC[C@@H](C)N(CCC(F)(F)F)C[C@@H]1C | -7 | 16[16.7 µM]
COCC#Cc1ccc2c(c1)O[C@@H](CN(C)C(=O)C1CCC1)[C@@H](C)CN([C@H](C)CO)S2(=O)=O | 11 | 10[16.7 µM]
C[C@H]1CN([C@@H](C)CO)C(=O)c2cc(NS(C)(=O)=O)ccc2O[C@H]1CN(C)CC1CC1 | -9 | -3[16.7 µM]
CN1C(=O)c2cc(NC(=O)Nc3cccc(Cl)c3)ccc2OC[C@@H]2O[C@@H](CC(=O)O)CC[C@H]21 | 12 | 17[16.7 µM]
C/C=C/c1cnc2c(c1)C(=O)N([C@H](C)CO)C[C@H](C)[C@H](CN(C)C(=O)Cc1ccccn1)O2 | -2 | -22[16.7 µM]
C[C@@H]1CN([C@H](C)CO)C(=O)c2cc(NS(=O)(=O)c3ccccc3)ccc2O[C@@H](C)CCCCO[C@H]1CN(C)C(=O)Nc1ccc2c(c1)OCO2 | 6 | -26[16.7 µM]
CN1C(=O)c2cc(NC(=O)Nc3ccccc3F)ccc2OC[C@@H]2O[C@H](CC(=O)O)CC[C@@H]21 | 1 | 18[16.7 µM]
C[C@H]1CN([C@@H](C)CO)C(=O)Cc2cc(NC(=O)C3CCCCC3)ccc2O[C@H]1CN(C)C(=O)Nc1ccccc1 | 4 | 5[16.7 µM]
COCC#Cc1cnc2c(c1)C(=O)N([C@H](C)CO)C[C@@H](C)[C@H](CN(C)C(=O)c1cccnc1)O2 | -9 | 5[16.7 µM]
C[C@H](CO)N1C[C@H](C)[C@@H](CN(C)S(=O)(=O)c2cn(C)cn2)Oc2c(cccc2N(C)C)C1=O | -4 | -7[16.7 µM]
C[C@@H]1CN([C@H](C)CO)C(=O)c2cccc(NC(=O)c3ccc(-c4nccs4)cc3)c2O[C@H]1CN(C)C(=O)Nc1cccc2ccccc12 | 6 | 10[16.7 µM]
C[C@@H]1CN([C@@H](C)CO)C(=O)c2cc(NC(=O)Cc3ccccc3)ccc2O[C@@H](C)CCCCO[C@H]1CN(C)C(=O)C1CCCCC1 | 15 | -15[16.7 µM]
C[C@H]1CN([C@@H](C)CO)S(=O)(=O)c2ccc(C#CC3(O)CCCC3)cc2O[C@@H]1CN(C)C(=O)Nc1ccc(F)cc1 | -3 | -65[16.7 µM]
COc1ccc(C#Cc2cnc3c(c2)C(=O)N([C@H](C)CO)C[C@H](C)[C@H](CN(C)C)O3)cc1 | 3 | -3[16.7 µM]
O=C(C[C@@H]1C=C[C@H](NC(=O)c2cccc(F)c2)[C@@H](CO)O1)NCCN1CCCC1 | 9 | -7[16.7 µM]
O=C(NCCN1CCOCC1)[C@@]1(Cc2ccccc2)COC(c2ccc(OCCCO)cc2)=N1 | 19 | -10[16.7 µM]
CN(C)C(=O)C[C@@H]1CC[C@@H]2[C@H](COc3ccc(NC(=O)C4CCCCC4)cc3C(=O)N2C)O1 | 8 | -16[16.7 µM]

# One compound at a time (already shown):
# Entry for C[C@@H]1CN([C@H](C)CO)C(=O)c2cccc(NC(=O)c3ccc(-c4nccs4)cc3)c2O[C@H]1CN(C)C(=O)Nc1cccc2ccccc12 = Yeast UUG start = 6; Env fusion inh = 10[16.7 µM]
# Entry for CN1C(=O)c2cc(NC(=O)Nc3ccccc3F)ccc2OC[C@@H]2O[C@H](CC(=O)O)CC[C@@H]21 = Yeast UUG start = 1; Env fusion inh = 18[16.7 µM]
# Entry for C[C@@H]1CN([C@H](C)CO)C(=O)c2cc(NS(=O)(=O)c3ccccc3)ccc2O[C@@H](C)CCCCO[C@H]1CN(C)C(=O)Nc1ccc2c(c1)OCO2 = Yeast UUG start = 6; Env fusion inh = -26[16.7 µM]

# 3 of the compounds above, with each value named.
> C[C@H]1CN([C@@H](C)CO)S(=O)(=O)c2ccc(C#CC3(O)CCCC3)cc2O[C@@H]1CN(C)C(=O)Nc1ccc(F)cc1
  Yeast UUG start: -3	Env fusion inh: -65[16.7 µM]

> COc1ccc(C#Cc2cnc3c(c2)C(=O)N([C@H](C)CO)C[C@H](C)[C@H](CN(C)C)O3)cc1
  Yeast UUG start: 3	Env fusion inh: -3[16.7 µM]

> O=C(C[C@@H]1C=C[C@H](NC(=O)c2cccc(F)c2)[C@@H](CO)O1)NCCN1CCCC1
  Yeast UUG start: 9	Env fusion inh: -7[16.7 µM]

# Only part of the results is shown; the hit share may differ from the screen's.
